Compound activity from PubChem BioAssay.
Lassa entry inh = inhibitors of Lassa virus binding or cell entry. Lassa virus pseudotype entry inhibition, cell reporter; control for the full effect not named in the record. Potency, µM (series often up to 37.9 µM), inactives show top-dose activity change, negative = inhibition, usual class: inhibitors. 300,000 compounds, 1.2% hits. AID 540256; active means well fitted inhibition curve with a large enough effect; inconclusive means small, poorly fitted or top-dose-only effect, or effect the other way; inactive means flat fitted curve, though single readings scatter; tested in HEK293 cells; further: on the % scale 0 is the no-effect control and ±100 the full control effect; nearly all actives have a fitted effect of over 50% in size; luciferase read-out
2A StopGo = lowers the luciferase signal of an FMDV 2A StopGo reporter | 410,000 compounds, 1.2% hits | AID 1159524 | Potency, µM (highest dose often 57.9 µM), for inactives: at the top dose signal change, negative = less light | human cells with a luciferase reporter of 2A StopGo recoding; control for the full effect not named in the record; active = well fitted falling curve with a large enough effect; inconclusive = small, poorly fitted or top-dose-only effect; inactive = no such curve, though single readings can be large or run the other way; tested in HEK293T cells; further: on the % scale 0 is the no-effect control and ±100 the full control effect; nearly all actives have a fitted effect of over 45% in size; luciferase light after 4 h
Cruzain inh Det = cruzain (T. cruzi) inhibition with detergent. AID 1478. purified cruzain, Z-FR-AMC fluorescence, 0.01% Triton. 200,000 compounds, 0.43% hits. Potency, µM, without a hit: max response, negative = inhibition, usual class: inhibitors;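 further: plate controls were neutral wells for no effect and buffer without enzyme for full effect; nearly all actives have a fitted effect of over 40% in size; top concentration of the series not given in the record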
Target sequence (P25779 123-467 limits assumed): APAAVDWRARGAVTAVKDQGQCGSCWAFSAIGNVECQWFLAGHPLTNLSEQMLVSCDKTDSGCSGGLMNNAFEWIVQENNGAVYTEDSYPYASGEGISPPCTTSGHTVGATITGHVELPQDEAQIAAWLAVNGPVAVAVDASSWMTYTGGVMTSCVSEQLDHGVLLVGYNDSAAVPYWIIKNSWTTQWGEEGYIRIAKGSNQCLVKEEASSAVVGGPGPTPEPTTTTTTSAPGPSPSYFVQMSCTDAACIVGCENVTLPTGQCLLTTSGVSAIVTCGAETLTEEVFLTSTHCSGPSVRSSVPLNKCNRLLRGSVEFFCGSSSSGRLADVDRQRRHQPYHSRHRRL
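Compounds were screened in titration against cruzain (1.5 nM) with 0.01% Triton X-100 to counter colloidal aggregation. Activity was the AMC fluorescence increase over 60 s after adding 2 uM Z-FR-AMC at pH 5.5.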
NS1 function inh = influenza NS1 inhibition. S. cerevisiae slowed by influenza A NS1, growth recovery by OD600. Potency, µM (doses to about 46.1 µM), for the others: at the highest dose activity, positive = more growth. AID 2326. 270,000 compounds, 0.4% hits; active means well fitted rising curve with a large enough effect; inconclusive means small, poorly fitted or top-dose-only effect; inactive means no such curve, though single readings can be large or run the other way; further: nearly all actives have a fitted effect of over 50% in size
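In this qHTS, NS1 from influenza A is expressed in budding yeast, where it slows growth. Cells are switched from glucose to 2% galactose medium (pH 6.0, -URA), treated with compound, and growth recovery is read at OD600.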
SARS PLpro yeast = inhibitors of SARS-CoV papain-like protease in yeast; S. cerevisiae expressing SARS-CoV PLpro, growth rescue; control for the full effect not named in the record; Potency, µM (titrated, usually from 32.9 µM), for inactives: top-dose activity, positive = growth rescue; 330,000 compounds, 0.19% hits; active means well fitted rising curve with a large enough effect; inconclusive means small, poorly fitted or top-dose-only effect; inactive means no such curve, though single readings can be large or run the other way; further: 0% is about no effect; nearly all actives have a fitted effect of over 55% in size; growth read by luminescence after 48 h
RE007 growth inh = less growth of the S. pombe RE007 Vpr strain | S. pombe RE007 Vpr strain, BacTiter-Glo ATP luminescence, 24 h; control for the full effect not named in the record | 360,000 compounds, 0.21% hits | Potency, µM (titrated, usually from 92.2 µM), for the others: top-dose activity change, negative = less growth | AID 651644; active = well fitted falling curve with a large enough effect; inconclusive = small, poorly fitted or top-dose-only effect; inactive = no such curve, though single readings can be large or run the other way;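 further: on the % scale 0 is the no-effect control and ±100 the full control effect; nearly all actives have a fitted effect of over 50% in size; the assay follows cell death caused by Vpr and the record does not say whether a fall means rescue or toxicity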
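Fission yeast RE007 carrying one integrated HIV-1 vpr copy, seeded at OD 0.01 in PMG+AL medium with 23 nL pinned compound. Grown 24 h at 30 degrees; viability read by BacTiter-Glo luminescence after 5 min.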
Cruzain noTriton = inhibitors of Trypanosoma cruzi cruzain without detergent. P25779. 200,000 compounds, 2.3% hits. Potency, µM, without a hit: max response, negative = inhibition, hits mostly inhibitors. purified cruzain, Z-FR-AMC fluorescence, no detergent;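 further: plate controls were enzyme without inhibitor for no effect and buffer without enzyme for full effect; nearly all actives have a fitted effect of over 40% in size; top concentration of the series not given in the record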
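Purified cruzain at 1.5 nM, pre-incubated 15 min with compound at room temperature in 100 mM sodium acetate pH 5.5, 5 mM DTT, 0.00005% Triton X-100. Reaction started with 2 uM Z-FR-AMC; AMC fluorescence increase over 60 s gives rate.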
Marburg entry inh = Marburg virus entry inhibition | Marburg virus pseudotyped entry inhibition, cell reporter; control for the full effect not named in the record; about a third of the inactives were read at about 46 µM | Potency, µM (highest dose often 37.8 µM), for inactives: at the top dose activity change, negative = inhibition, usual class: inhibitors | 300,000 compounds, 1.8% hits; active = well fitted inhibition curve with a large enough effect; inconclusive = small, poorly fitted or top-dose-only effect, or effect the other way; inactive = flat fitted curve, though single readings scatter; tested in HEK293 cells; about a fifth of its hits are not listed in these tables; further: on the % scale 0 is the no-effect control and ±100 the full control effect; luciferase read-out
Starred values were filed as active, the others as inactive; u = inconclusive; x = no result given; & = joins results of further samples; [ ] = remark or other dose. Unless noted, the call rests on the fitted dose curve; in most records, active means well fitted curve in the direction sought with a large enough effect; inconclusive means small, poorly fitted or top-dose-only effect, or another doubt; inactive means no such curve, though single readings can be large; an effect the other way counts as inactive or inconclusive. Potency means the concentration at half of the fitted maximal effect. Only part of the results is shown (hit frequency here may not be typical).

cpd | canonical_smiles | Lassa entry inh | 2A StopGo | Cruzain inh Det | NS1 function inh
1 | O=C(O)[C@H]1[C@H]2C[C@H]3c4[nH]c5ccccc5c4CCN3C[C@@H]2CC[C@@H]1O | x | x | -0.6% | x
2 | Cc1c(I)c(=O)n(-c2ccccc2)n1C | x | x | -1.0% | x
3 | C=CC1=C(C(=O)O)N2C(=O)[C@@H](NC(=O)C(N=O)c3csc(N)n3)[C@H]2SC1 (some centres undefined) | x | x | -1.2% | x
4 | CCCCCCN | x | x | 4.5% | x
5 | C/C=C\C(=O)N(CC)c1ccccc1C | x | x | -4.4% | x
6 | CCC[C@H](N[C@@H](C)C(=O)N1[C@@H]2CCCC[C@H]2C[C@H]1C(=O)O)C(=O)OCC | x | x | 1.0% | x
7 | CC[C@H](Cc1c(I)cc(I)c(N)c1I)C(=O)O | x | x | -6.9% | x
8 | CCC(=O)O | x | x | 3.4% | x
9 | C=CC1=C(C(=O)O)N2C(=O)C(NC(=O)/C(=N\O)c3csc(N)n3)C2SC1 (centres undefined) | x | x | -10% | x
10 | COc1ccc(S(=O)(=O)N2c3ccc(Cl)cc3[C@](O)(c3ccccc3Cl)[C@@H]2C(=O)N2CCC[C@H]2C(N)=O)cc1OC | x | x | -2.7% | x

cpd | SARS PLpro yeast | RE007 growth inh | Cruzain noTriton | Marburg entry inh
1 | x | x | 9% | x
2 | x | x | -4% | x
3 | x | x | -6% | x
4 | x | x | 2% | x
5 | x | x | u | x
6 | x | x | 6% | x
7 | x | x | -17% | x
8 | x | x | 6% | x
9 | x | x | -2% | x
10 | x | x | u | x

Next section
cpd | canonical_smiles | Lassa entry inh | 2A StopGo | Cruzain inh Det | NS1 function inh
11 | CCCN[C@@H](C)C(=O)Nc1c(C)csc1C(=O)OC | x | x | -5.0% | x
12 | Cc1ccccc1OC[C@H](O)CO | x | x | 2.1% | x
13 | CCOC(=O)C(CCc1ccccc1)NC(C)C(=O)N1Cc2ccccc2CC1C(=O)O (centres undefined) | x | x | 2.7% | x
14 | Oc1cc(O)c2c(c1)O[C@H](c1ccc(O)c(O)c1)[C@@H](O)[C@@H]2c1c(O)cc(O)c2c1O[C@@H](c1ccc(O)c(O)c1)[C@H](O)C2 | x | x | -2.1% | -3%
15 | CCN(CC)CCn1c(=O)c(Cc2ccc(OC)cc2)nc2ccccc21 | -4% | x | x | x
16 | O=C1c2c(O)cccc2[C@H]([C@@H]2O[C@H](CO)[C@@H](O)[C@H](O)[C@H]2O)c2cc(CO)cc(O)c21 | x | -9% | x | x
17 | Cc1cc(Nc2cc(N3CCN(C)CC3)nc(Sc3ccc(NC(=O)C4CC4)cc3)n2)n[nH]1 | x | -21% | x | x
18 | CCC(C)[C@@H](N)C(=O)O (some centres undefined) | x | 1% | x | x
19 | CC1(C)O[C@H]2CC(=O)OC[C@]23[C@H]2CC[C@@]4(C)[C@H](c5ccoc5)OC(=O)[C@H]5O[C@]54[C@]2(C)C(=O)C[C@@H]13 | x | -9% | x | x
20 | O=C1c2ccc(O)c(O)c2C(=O)c2c(O)ccc(O)c21 | x | 22µM* | -21% | x

cpd | SARS PLpro yeast | RE007 growth inh | Cruzain noTriton | Marburg entry inh
11 | x | x | -6% | x
12 | x | x | 3% | x
13 | x | x | -1% | x
14 | x | x | -3% | x
15 | x | x | x | -19%
16 | x | x | x | x
17 | x | x | x | x
18 | x | x | x | x
19 | x | x | x | x
20 | x | x | -7% | x

More compounds:
cpd | canonical_smiles | Lassa entry inh | 2A StopGo | Cruzain inh Det | NS1 function inh
21 | COc1cc(O)c2c(=O)cc(-c3ccc(OC)c(-c4c(O)cc(O)c5c(=O)cc(-c6ccc(O)cc6)oc45)c3)oc2c1 | x | 4% | -12% | x
22 | COC(=O)C1=CO[C@@H](O[C@H]2OC(CO)C(O)C(O)C2O)C2C1CC(O)C2C (some centres undefined) | x | -15% | 5.5% | x
23 | O=c1cc(-c2ccc(O)cc2)oc2cc(OC3OC(CO)C(O)C(O)[C@H]3O[C@@H]3OC[C@@](O)(CO)C3O)cc(O)c12 (some centres undefined) | x | -12% | -13% | x
24 | CC(=O)C1CCC2C3CC(C)C4=CC(=O)CC[C@@]4(C)C3C(O)C[C@@]12C (some centres undefined) | x | -14% | -2.7% | x
25 | O=c1[nH]c2cc(C(F)(F)F)c(N3CCOCC3)cc2n(CP(=O)(O)O)c1=O | x | -17% | -1.6% | x
26 | COc1ccc(C(=O)NCc2ccc(OCCN(C)C)cc2)cc1OC | x | -15% | x | x
27 | CCCNC(C)C(=O)Nc1c(C)csc1C(=O)OC (centres undefined) | x | -11% | x | x
28 | C=CC1=C(C(=O)O)N2C(=O)[C@@H](NC(=O)/C(=N\O)c3csc(N)n3)[C@H]2SC1 (stereo in doubt) | x | -16%&4% | x | x
29 | Cc1[nH]n2c(=O)cc(-c3ccc(Cl)cc3)nc2c1-c1ccccc1 | 2.5µM* | u | x | x
30 | CC(=O)OCC1=C[C@@H]2OC(=O)C3=CO[C@@H](O[C@@H]4O[C@H](CO)[C@@H](O)[C@H](O)[C@H]4O)[C@H]1[C@@H]32 | x | -16% | x | x

cpd | SARS PLpro yeast | RE007 growth inh | Cruzain noTriton | Marburg entry inh
21 | x | x | u | x
22 | x | x | -3% | x
23 | x | x | -19% | x
24 | x | x | u | x
25 | x | x | -4% | x
26 | x | 14%[18.4 µM] | x | x
27 | x | 61%[18.4 µM] | x | x
28 | x | -7%[18.4 µM] | x | x
29 | x | x | x | 11µM*
30 | 0% | -6% | x | x

Rewritten in transposed form: entries from further up
(26) COc1ccc(C(=O)NCc2ccc(OCCN(C)C)cc2)cc1OC
(27) CCCNC(C)C(=O)Nc1c(C)csc1C(=O)OC (centres undefined)
Screen / compound no.,26,27
Lassa entry inh,x,x
2A StopGo,-15%,-11%
Cruzain inh Det,x,x
NS1 function inh,x,x
SARS PLpro yeast,x,x
RE007 growth inh,14%[18.4 µM],61%[18.4 µM]
Cruzain noTriton,x,x
Marburg entry inh,x,x

One compound at a time, from the list above. Order of values: Lassa entry inh | 2A StopGo | Cruzain inh Det | NS1 function inh | SARS PLpro yeast | RE007 growth inh | Cruzain noTriton | Marburg entry inh
CC1(C)O[C@H]2CC(=O)OC[C@]23[C@H]2CC[C@@]4(C)[C@H](c5ccoc5)OC(=O)[C@H]5O[C@]54[C@]2(C)C(=O)C[C@@H]13 is entered as x | -9% | x | x | x | x | x | x
COc1ccc(C(=O)NCc2ccc(OCCN(C)C)cc2)cc1OC is entered as x | -15% | x | x | x | 14%[18.4 µM] | x | x
O=C(O)[C@H]1[C@H]2C[C@H]3c4[nH]c5ccccc5c4CCN3C[C@@H]2CC[C@@H]1O is entered as x | x | -0.6% | x | x | x | 9% | x
C=CC1=C(C(=O)O)N2C(=O)[C@@H](NC(=O)/C(=N\O)c3csc(N)n3)[C@H]2SC1 (stereo in doubt) is entered as x | -16%&4% | x | x | x | -7%[18.4 µM] | x | x
C=CC1=C(C(=O)O)N2C(=O)[C@@H](NC(=O)C(N=O)c3csc(N)n3)[C@H]2SC1 (some centres undefined) is entered as x | x | -1.2% | x | x | x | -6% | x
